Assay outcomes as filed in PubChem BioAssay.
Cruzain noTriton – qHTS Assay for Promiscuous and Specific Inhibitors of Cruzain (without detergent); Cruzipain (Trypanosoma cruzi), P25779; purified cruzain, Z-FR-AMC fluorescence, no detergent; Potency, µM, inactives show max response, negative = inhibition, actives largely listed as inhibitors; actives 2.3% (n = 200,000); active = well fitted curve in the direction sought with a large enough effect; inconclusive = small, poorly fitted or top-dose-only effect, or another doubt; inactive = no such curve, though single readings can be large; an effect the other way counts as inactive or inconclusive;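 also: plate controls were enzyme without inhibitor for no effect and buffer without enzyme for full effect; nearly all actives have a fitted effect of over 40% in size; top concentration of the series not given in the record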
Target sequence (P25779 123-467 limits assumed): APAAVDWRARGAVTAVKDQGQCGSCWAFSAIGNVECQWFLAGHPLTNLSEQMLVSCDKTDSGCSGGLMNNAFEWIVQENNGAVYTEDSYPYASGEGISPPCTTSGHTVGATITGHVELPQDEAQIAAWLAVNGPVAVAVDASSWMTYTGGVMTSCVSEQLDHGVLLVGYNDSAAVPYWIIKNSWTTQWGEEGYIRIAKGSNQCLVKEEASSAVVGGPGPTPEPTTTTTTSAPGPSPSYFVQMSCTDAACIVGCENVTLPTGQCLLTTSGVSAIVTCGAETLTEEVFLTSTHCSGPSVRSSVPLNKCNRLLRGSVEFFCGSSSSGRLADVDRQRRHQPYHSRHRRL
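Purified cruzain at 1.5 nM, pre-incubated 15 min with compound at room temperature in 100 mM sodium acetate pH 5.5, 5 mM DTT, 0.00005% Triton X-100. Reaction started with 2 uM Z-FR-AMC; AMC fluorescence increase over 60 s gives rate.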
SARS PLpro yeast – qHTS of Yeast-based Assay for SARS-CoV PLP; S. cerevisiae expressing SARS-CoV PLpro, growth rescue; control for the full effect not named in the record; Potency, µM (series often up to 32.9 µM), for the others: at the highest dose activity, positive = growth rescue; actives 0.19% (n = 330,000); AID 485353, 2010; also: 0% is about no effect; nearly all actives have a fitted effect of over 55% in size; growth read by luminescence after 48 h
Cruzain inh Det – qHTS Assay for Promiscuous and Specific Inhibitors of Cruzain (with detergent) | purified cruzain, Z-FR-AMC fluorescence, 0.01% Triton | Potency, µM, inactives show max response, negative = inhibition, hits mostly inhibitors | AID 1478, 2009 | actives 0.43% (n = 200,000); active = well fitted curve in the direction sought with a large enough effect; inconclusive = small, poorly fitted or top-dose-only effect, or another doubt; inactive = no such curve, though single readings can be large; an effect the other way counts as inactive or inconclusive;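 also: plate controls were neutral wells for no effect and buffer without enzyme for full effect; nearly all actives have a fitted effect of over 40% in size; top concentration of the series not given in the record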
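Purified cruzain (1.5 nM final) was preincubated with compounds for 15 min at room temperature in 100 mM sodium acetate pH 5.5, 5 mM DTT, 0.01% Triton X-100. Reaction started with 2 uM Z-FR-AMC; AMC fluorescence change over 60 s gave activity.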
LASV entry inh – qHTS for Inhibitors of binding or entry into cells for Lassa Virus. Lassa virus pseudotype entry inhibition, cell reporter; control for the full effect not named in the record. Potency, µM (series often up to 37.9 µM), without a hit: at the highest dose activity change, negative = inhibition, hits mostly inhibitors. actives 1.2% (n = 300,000). AID 540256, 2011; active means well fitted inhibition curve with a large enough effect; inconclusive means small, poorly fitted or top-dose-only effect, or effect the other way; inactive means flat fitted curve, though single readings scatter; tested in HEK293 cells; also: % is scaled to controls: 0 for no effect and ±100 for the full control effect; nearly all actives have a fitted effect of over 50% in size; luciferase read-out
RE007 growth inh – qHTS Assay for Inhibitors of the HIV-1 protein Vpr; S. pombe RE007 Vpr strain, BacTiter-Glo ATP luminescence, 24 h; control for the full effect not named in the record; actives 0.21% (n = 360,000); AID 651644, 2012; Potency, µM (top dose mostly 92.2 µM), without a hit: at the top dose activity change, negative = less growth; active = well fitted falling curve with a large enough effect; inconclusive = small, poorly fitted or top-dose-only effect; inactive = no such curve, though single readings can be large or run the other way;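 also: % is scaled to controls: 0 for no effect and ±100 for the full control effect; nearly all actives have a fitted effect of over 50% in size; the assay follows cell death caused by Vpr and the record does not say whether a fall means rescue or toxicity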
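Fission yeast RE007 carrying one integrated HIV-1 vpr copy, seeded at OD 0.01 in PMG+AL medium with 23 nL pinned compound. Grown 24 h at 30 degrees; viability read by BacTiter-Glo luminescence after 5 min.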
NS1 function inh – qHTS Assay for Inhibitors of Influenza NS1 Protein Function; S. cerevisiae slowed by influenza A NS1, growth recovery by OD600; Potency, µM (titrated, usually from 46.1 µM), for inactives: top-dose activity, positive = more growth; actives 0.4% (n = 270,000); AID 2326, 2010; also: actives are rising curves; nearly all actives have a fitted effect of over 50% in size
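In this qHTS, NS1 from influenza A is expressed in budding yeast, where it slows growth. Cells are switched from glucose to 2% galactose medium (pH 6.0, -URA), treated with compound, and growth recovery is read at OD600.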
2A StopGo – High Throughput Screening for Foot and Mouth Disease Virus Antivirals; human cells with a luciferase reporter of 2A StopGo recoding; control for the full effect not named in the record; Potency, µM (series often up to 57.9 µM), for the others: top-dose signal change, negative = less light; actives 1.2% (n = 410,000); AID 1159524, 2015; active = well fitted falling curve with a large enough effect; inconclusive = small, poorly fitted or top-dose-only effect; inactive = no such curve, though single readings can be large or run the other way; tested in HEK293T cells; also: % is scaled to controls: 0 for no effect and ±100 for the full control effect; nearly all actives have a fitted effect of over 45% in size; luciferase light after 4 h
MARV entry inh – qHTS for inhibitors of binding or entry into cells for Marburg Virus; actives 1.8% (n = 300,000); Potency, µM (doses to about 37.8 µM), without a hit: at the highest dose activity change, negative = inhibition, most hits filed as inhibitors; AID 540276, 2011; Marburg virus pseudotyped entry inhibition, cell reporter; control for the full effect not named in the record; about a third of the inactives were read at about 46 µM; active = well fitted inhibition curve with a large enough effect; inconclusive = small, poorly fitted or top-dose-only effect, or effect the other way; inactive = flat fitted curve, though single readings scatter; tested in HEK293 cells; about a fifth of its hits are not listed in these tables; also: % is scaled to controls: 0 for no effect and ±100 for the full control effect; luciferase read-out
* = called active by the depositor; ? = inconclusive; nt = not tested or not shown; [ ] = dose if it differs, or a comment. Unless noted, calls follow the shape of the dose curve; as a rule, active means well fitted rising curve with a large enough effect; inconclusive means small, poorly fitted or top-dose-only effect; inactive means no such curve, though single readings can be large or run the other way. Potency is read from the fitted curve at half-maximal effect.

SMILES	Cruzain noTriton	SARS PLpro yeast	Cruzain inh Det	LASV entry inh	RE007 growth inh	NS1 function inh	2A StopGo	MARV entry inh
CC(=O)Nc1ncc(Cc2cccc(Cl)c2Cl)s1	nt	-1%	nt	-24%	2%	0%	8%	22%[46.1 µM]
O=C(O)C1CCCN1S(=O)(=O)c1cccc(S(=O)(=O)N2CCCC2C(=O)O)c1 (configuration not stated)	nt	11%	nt	nt	-9%	-8%	-7%	nt
CN(CC(=O)Nc1ccccc1C(F)(F)F)C(=O)COc1ncnc2ccccc12	nt	1%	nt	18%[46.1 µM]	3%	nt	-1%	10%[46.1 µM]
CCOc1ccc(-c2cnc3n2CCCCC3)cc1	nt	1%	nt	2%	-16%	5%	-14%	?
COc1cccc(CN2CC(C(=O)N3CCCCCC3)CCC2=O)c1 (configuration not stated)	nt	-1%	nt	13%	8%	0%	19%	?
O=C(Nc1ccc(S(=O)(=O)Nc2ncccn2)cc1)c1cccc(S(=O)(=O)N2CCCC2)c1	nt	-1%	nt	-14%	5%	?	-6%	20%
COc1ccc2c(c1)c(C(O)CN1CCC(Cc3ccccc3)CC1)c(C)n2C (configuration not stated)	-1%	-4%	7.2%	?	4%	10%	0%	?
Cc1cc(NCc2ccc(F)cc2)nc2cc(Cl)ccc12	nt	-9%	nt	nt	?	-90%	-10%	nt
COC(=O)CCC(=O)OC1(C)C(=O)C=C2C=C(C3CC3)N(c3cccc(C#N)c3)C=C2C1=O (configuration not stated)	nt	-1%	nt	nt	-11%	7%	-11%	nt
COc1ccc(NC(=O)NCCN2CCN(c3cccc(Cl)c3)CC2)cc1	-6%	5%	-0.7%	nt	7%	-15%	?	nt
O=C(Nc1ccccn1)c1cc2ccccc2o1	0%	-54%	-3.4%	4.6µM*	?	-11%	nt	?
COC(=O)c1ccc(C2SCC(=O)N2Cc2ccccc2)cc1 (configuration not stated)	nt	-4%	nt	nt	1%	-7%	-12%	nt
CC(C)c1onc(C(=O)N2CCOCC2)c1[N+](=O)[O-]	nt	-4%	nt	-8%[46.1 µM]	-15%	nt	-8%	10%[46.1 µM]
C#CCNC(=O)C1=C[C@@H](c2ccc(Br)cc2)[C@H](CCCO)[C@@H](OCC)O1	nt	2%	nt	nt	7%	-1%	-16%	nt
O=C(O)CSCc1ccc(Cl)cc1	-8%	2%	5.7%	1%	1%	1%	11%	9%
COCCN(C(=O)CC(C)(C)C)c1nnc(-c2cccnc2)s1	2%	7%	-0.8%	-6%	3%	-1%	-9%	-1%
O=C(Nc1ccccc1OC(F)F)c1ccccc1	2%	-20%	-3.0%	-5%	-12%	-13%	23%	10%
CCOC(=O)c1cccc(NC(=O)CSc2nnc(C3CCCCC3)n2CC)c1	3%	-2%	1.9%	13%	4%	-30%	0%	?
CC1(C)CC(=O)C2=C(C1)N(c1ccccc1)C(N)=C(C#N)C2c1ccccc1 (configuration not stated)	-15%	-8%	-5.4%	-33%	-13%	8%	-3%	-30%
CCOc1ccc(/C=N/n2c(C)nnc2C)cc1OC	nt	2%	nt	-2%	5%	5%	19%	?
CC(=O)c1cccc(NS(=O)(=O)c2c(C)n[nH]c2C)c1	16%	nt	0.1%	1%	3%	2%	20%	-11%
CCOC(=O)N1C2CCC(C2)N1C(=O)OCC	nt	nt	nt	13%	5%	nt	-11%	30%
O=C(/C=C/Sc1ccc(C(F)(F)F)cn1)c1ccccc1	nt	-1%	nt	nt	2%	-3%	12%	nt
CCCc1nn(CCc2ccccn2)c(N)c1CC	-8%	2%	2.9%	3%	-2%	-4%	6%	24%
CN1C(=O)C2(C(C#N)=C(N)N(c3ccc(Cl)cc3)C3=C2C(=O)CC(C)(C)C3)c2ccccc21 (configuration not stated)	?	7%	2.1%	-17%	2%	1%	-4%	-12%
COc1cccc(COc2ncnc3sccc23)c1	nt	0%	nt	-4%	25%	nt	13%	-8%
Cc1[nH]n(-c2ccccc2)c(=O)c1C(=O)c1ccccc1	nt	23%	nt	?	5%	-3%	-2%	-29%[46.1 µM]
Cc1ccc(S(=O)(=O)N2CCN(C3CC(=O)N(CCc4ccccc4)C3=O)CC2)cc1C (configuration not stated)	?	-5%	-3.1%	-23%	-3%	-19%	0%	-8%
CCCSc1ncc(Cl)c(C(=O)Nc2c(C(=O)c3ccc(C)cc3)oc3ccccc23)n1	-7%	nt	-1.5%	?	nt	nt	-12%	?
OCCNc1nc(Nc2ccc(Cl)c(Cl)c2)nc2ccccc12	nt	-13%	nt	nt	11%	-101%	-8%	nt
O=C(CSc1cccc[n+]1[O-])Nc1cc2c(cc1Cl)C(=O)c1ccccc1C2=O	-9%	22%	-13%	5%	?	-26%	44%[activator]	?
Cc1ccccc1NC(=O)c1c(NC(=O)c2ccccc2F)sc2c1CCC(C)C2 (configuration not stated)	-4%	nt	-2.0%	?	nt	nt	-9%	-20%[46.1 µM]
COCCNc1c(-c2ccc(OC)cc2)nc2ccc(Cl)cn12	nt	-1%	nt	?	-3%	-8%	-1%	?
COc1ccc(C2=C(C)C(N3CCC(C(=O)Nc4ccccc4F)CC3)=NS2(=O)=O)cc1	-20%	nt	-13%	20%[46.1 µM]	nt	nt	-2%	nt
CN1/C(=C\C(=O)c2cccs2)C(C)(C)c2ccccc21	10%	-95%	-10%	1%	?	-23%	10%	9%
Cc1nc2c(c(C)c1C#N)C(=O)c1ccccc1-2	11%	7%	-0.6%	16%	-12%	1%	-9%	29%
CCOc1ccccc1NC(=O)CSc1c(C)n[nH]c1C	?	-3%	3.8%	-8%	2%	15%	0%	-1%
CCCCn1c(SCc2ccccn2)nc2c1c(=O)n(C)c(=O)n2C	-2%	-2%	-0.7%	?	-5%	-8%	?	-5%
Cc1ccccc1NC(=S)N(CCCN1CCC(C)CC1)Cc1ccco1	-5%	-6%	0.8%	-1%	-13%	-9%	-8%	?
COc1ccc(CCn2c(-c3ccco3)nc3nc4ccccc4nc32)cc1OC	?	0%	-7.0%	nt	nt	-7%	nt	nt
COc1ccccc1/C=N/N=C(/N)N[N+](=O)[O-]	-11%	3%	-2.9%	3%	-1%	-1%	-1%	-30%
Cc1c(NC(=O)c2ccc(N3CCCC3)c([N+](=O)[O-])c2)cccc1-c1nc2ccccc2s1	7.9µM*	6%	-7.3%	-7%	13%	2µM*	nt	?
O=C(NNS(=O)(=O)c1ccc(Cl)cc1)C1CCN(Cc2ccccc2)CC1	-16%	7%	10%	-23%	5%	-11%	-7%	-2%
COc1ccc(O)c(CN2CCCC(C(=O)Nc3cccc(-n4cccn4)c3)C2)c1 (configuration not stated)	nt	-3%	nt	-11%	-3%	10%	-15%	-18%
FC(F)(F)c1nnc(-c2ccccc2)nc1Oc1ccccc1	-7%	1%	-2.4%	?	-17%	11%	-6%	-25%
O=C(Oc1cccc(NC(=O)c2ccco2)c1)c1cccc(S(=O)(=O)N2CCCC2)c1	-18%	-2%	-1.3%	25%	-21%	10%	31%[activator]	0%
Oc1cccc(CN2CCOCC2)c1O	nt	nt	nt	?	-28%	nt	-18%	16%
CCN(CC)c1ccc(NC(=O)CCS(=O)(=O)c2cc3c(cc2Cl)NC(=O)CO3)c(C)c1	-8%	nt	-4.4%	-26%[46.1 µM]	nt	nt	-25%	nt
S=C(NCCCN1CCOCC1)N1CCN(c2nc(-c3ccc(Cl)cc3)cs2)CC1	nt	0%	nt	16µM*	-24%	4%	13µM*	?
COc1ccc(C(=O)N2c3ccc(F)cc3CCC2C)cc1OC (configuration not stated)	25%	1%	-1.1%	-44%	26%	-13%	-17%	-21%
COc1ccc(-c2[nH]nc3oc(=O)cc(C)c23)cc1	-13%	nt	-2.9%	-27%	-1%	-19%	-2%	-14%
Cc1ccsc1/C=C(\C#N)C(=O)Nc1c(C)n(C)n(-c2ccccc2)c1=O	-3%	?	-10%	17%	-16%	-2%	-10%	9%
CCOC(=O)NCc1ccc2c(c1)OCO2	3%	-2%	3.5%	3%	10%	-4%	7%	-3%
Cn1c(=O)c2c(n(Cc3ccccc3)c1=O)NC(=O)C2CC(=O)N1CCc2ccccc2C1 (configuration not stated)	19%	-2%	4.7%	12%	-2%	18%	?	6%
N/C(=N\OC(=O)COc1ccccc1)c1ccccn1	7%	-20%	2.1%	?	14%	-11%	70%[activator]	?

Some of the entries so far, with two lines to a compound.
Values run as follows: Cruzain noTriton, SARS PLpro yeast, Cruzain inh Det, LASV entry inh, RE007 growth inh, NS1 function inh, 2A StopGo, MARV entry inh
- COc1ccc(-c2[nH]nc3oc(=O)cc(C)c23)cc1
→ -13%, nt, -2.9%, -27%, -1%, -19%, -2%, -14%
- Cc1ccsc1/C=C(\C#N)C(=O)Nc1c(C)n(C)n(-c2ccccc2)c1=O
→ -3%, ?, -10%, 17%, -16%, -2%, -10%, 9%

Profiles, quoted from the list. Screens in order: Cruzain noTriton, SARS PLpro yeast, Cruzain inh Det, LASV entry inh, RE007 growth inh, NS1 function inh, 2A StopGo, MARV entry inh
CC(=O)c1cccc(NS(=O)(=O)c2c(C)n[nH]c2C)c1 in the list: 16%, nt, 0.1%, 1%, 3%, 2%, 20%, -11%
Cc1[nH]n(-c2ccccc2)c(=O)c1C(=O)c1ccccc1 in the list: nt, 23%, nt, ?, 5%, -3%, -2%, -29%[46.1 µM]
COc1ccc(-c2[nH]nc3oc(=O)cc(C)c23)cc1 in the list: -13%, nt, -2.9%, -27%, -1%, -19%, -2%, -14%
CN1/C(=C\C(=O)c2cccs2)C(C)(C)c2ccccc21 in the list: 10%, -95%, -10%, 1%, ?, -23%, 10%, 9%
